NS1 function inh: influenza NS1 inhibition. S. cerevisiae slowed by influenza A NS1, growth recovery by OD600. Potency, µM (highest dose often 46.1 µM), for inactives: at the top dose activity, positive = more growth. actives 0.4% (n = 270,000); active means well fitted rising curve with a large enough effect; inconclusive means small, poorly fitted or top-dose-only effect; inactive means no such curve, though single readings can be large or run the other way; further: nearly all actives have a fitted effect of over 50% in size
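S. cerevisiae expressing influenza A NS1, grown in glucose, washed, then diluted 1:100 into pH 6.0 -URA galactose medium with 23 nl compound. Growth recovery read as OD600; NS1-free strain serves as control.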
Cruzain Triton: cruzain (T. cruzi) inhibition with detergent; actives 0.43% (n = 200,000); purified cruzain, Z-FR-AMC fluorescence, 0.01% Triton; AID 1478; Potency, µM, for inactives: max response, negative = inhibition, most hits filed as inhibitors; P25779;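 further: plate controls were neutral wells for no effect and buffer without enzyme for full effect; nearly all actives have a fitted effect of over 40% in size; top concentration of the series not given in the record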
Target sequence (P25779 123-467 limits assumed): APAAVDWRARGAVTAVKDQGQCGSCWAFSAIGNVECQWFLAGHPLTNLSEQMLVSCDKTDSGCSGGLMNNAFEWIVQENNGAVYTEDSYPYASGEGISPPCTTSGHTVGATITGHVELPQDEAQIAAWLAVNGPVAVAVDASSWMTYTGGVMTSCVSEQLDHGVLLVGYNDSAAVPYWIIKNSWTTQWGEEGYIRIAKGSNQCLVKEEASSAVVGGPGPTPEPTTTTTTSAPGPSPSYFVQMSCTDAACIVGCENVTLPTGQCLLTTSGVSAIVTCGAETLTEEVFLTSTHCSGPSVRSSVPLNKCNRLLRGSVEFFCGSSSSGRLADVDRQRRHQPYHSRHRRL
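In this qHTS format, compounds are incubated with 1.5 nM cruzain for 15 min at room temperature before 2 uM Z-FR-AMC is added. Release of AMC is followed at 360/450 nm, and progress is taken as the 60 s fluorescence difference.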
Marburg entry inh: blocks Marburg virus binding to or entry into cells. Marburg virus pseudotyped entry inhibition, cell reporter; control for the full effect not named in the record; about a third of the inactives were read at about 46 µM. Potency, µM (top dose mostly 37.8 µM), without a hit: at the top dose activity change, negative = inhibition, most hits filed as inhibitors. actives 1.8% (n = 300,000). AID 540276; active = well fitted inhibition curve with a large enough effect; inconclusive = small, poorly fitted or top-dose-only effect, or effect the other way; inactive = flat fitted curve, though single readings scatter; tested in HEK293 cells; about a fifth of its hits are not listed in these tables; further: on the % scale 0 is the no-effect control and ±100 the full control effect; luciferase read-out
RE007 growth inh: less growth of the S. pombe RE007 Vpr strain; S. pombe RE007 Vpr strain, BacTiter-Glo ATP luminescence, 24 h; control for the full effect not named in the record; AID 651644; Potency, µM (top dose mostly 92.2 µM), without a hit: at the highest dose activity change, negative = less growth; actives 0.21% (n = 360,000); active = well fitted falling curve with a large enough effect; inconclusive = small, poorly fitted or top-dose-only effect; inactive = no such curve, though single readings can be large or run the other way;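 further: on the % scale 0 is the no-effect control and ±100 the full control effect; nearly all actives have a fitted effect of over 50% in size; the assay follows cell death caused by Vpr and the record does not say whether a fall means rescue or toxicity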
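Fission yeast RE007 carrying one integrated HIV-1 vpr copy, seeded at OD 0.01 in PMG+AL medium with 23 nL pinned compound. Grown 24 h at 30 degrees; viability read by BacTiter-Glo luminescence after 5 min.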
SARS PLpro yeast: blocks SARS-CoV papain-like protease in a yeast assay | Potency, µM (top dose mostly 32.9 µM), for the others: at the top dose activity, positive = growth rescue | actives 0.19% (n = 330,000) | S. cerevisiae expressing SARS-CoV PLpro, growth rescue; control for the full effect not named in the record; active means well fitted rising curve with a large enough effect; inconclusive means small, poorly fitted or top-dose-only effect; inactive means no such curve, though single readings can be large or run the other way; further: 0% is about no effect; nearly all actives have a fitted effect of over 55% in size; growth read by luminescence after 48 h
LASV entry inh: Lassa virus entry inhibition; Lassa virus pseudotype entry inhibition, cell reporter; control for the full effect not named in the record; AID 540256; Potency, µM (top dose mostly 37.9 µM), for inactives: top-dose activity change, negative = inhibition, usual class: inhibitors; actives 1.2% (n = 300,000); active means well fitted inhibition curve with a large enough effect; inconclusive means small, poorly fitted or top-dose-only effect, or effect the other way; inactive means flat fitted curve, though single readings scatter; tested in HEK293 cells; further: on the % scale 0 is the no-effect control and ±100 the full control effect; nearly all actives have a fitted effect of over 50% in size; luciferase read-out
Cruzain noTriton: cruzain (T. cruzi) inhibition without detergent. purified cruzain, Z-FR-AMC fluorescence, no detergent. AID 1476. Potency, µM, for the others: max response, negative = inhibition, actives largely listed as inhibitors. actives 2.3% (n = 200,000);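 further: plate controls were enzyme without inhibitor for no effect and buffer without enzyme for full effect; nearly all actives have a fitted effect of over 40% in size; top concentration of the series not given in the record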
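Purified cruzain at 1.5 nM, pre-incubated 15 min with compound at room temperature in 100 mM sodium acetate pH 5.5, 5 mM DTT, 0.00005% Triton X-100. Reaction started with 2 uM Z-FR-AMC; AMC fluorescence increase over 60 s gives rate.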
StopGo reporter: lowers the luciferase signal of an FMDV 2A StopGo reporter; actives 1.2% (n = 410,000); Potency, µM (series often up to 57.9 µM), without a hit: top-dose signal change, negative = less light; human cells with a luciferase reporter of 2A StopGo recoding; control for the full effect not named in the record; active = well fitted falling curve with a large enough effect; inconclusive = small, poorly fitted or top-dose-only effect; inactive = no such curve, though single readings can be large or run the other way; tested in HEK293T cells; further: on the % scale 0 is the no-effect control and ±100 the full control effect; nearly all actives have a fitted effect of over 45% in size; luciferase light after 4 h
The depositor's hits bear a star; ? = inconclusive; nt = no result given; & = joins results of further samples; [ ] = another dose, or the depositor's remark. Unless noted, the call rests on the fitted dose curve; in most records, active means well fitted curve in the direction sought with a large enough effect; inconclusive means small, poorly fitted or top-dose-only effect, or another doubt; inactive means no such curve, though single readings can be large; an effect the other way counts as inactive or inconclusive. Potency means the concentration at half of the fitted maximal effect.

mol	NS1 function inh	Cruzain Triton	Marburg entry inh	RE007 growth inh	SARS PLpro yeast	LASV entry inh	Cruzain noTriton	StopGo reporter
CC1CCCC(NC(=O)Cn2cc3c(n2)CCCCC3)C1C (stereo not drawn)	-22.4%	-3.1%	nt	4.1%	-3.0%	nt	5.1%	-15.1%
Cc1cc(C)c(S(=O)(=O)N2CCCOC2CNC(=O)C(=O)NCCc2c[nH]c3ccccc23)c(C)c1 (stereo not drawn)	7.1%	-4.5%	?	4.6%	19.3%	?	-19.7%	?
CCc1cc(C(=O)N2CCN(c3ccccc3)CC2)no1	nt	-2.0%	28.1%[46.1 µM]	nt	nt	22.3%[46.1 µM]	-0.5%	20.8%
CSCc1ccc(C(=O)N2CCC(N3CCC(C(=O)NC(C)C)CC3)CC2)o1	-14.9%	nt	-17.3%	16.9%	-5.5%	3.6%	nt	-18.2%
COc1ccc(-c2nc(N)n(C(=O)c3ccco3)n2)cc1	nt	nt	15.8%[46.1 µM]	12.1%	0.1%	3.8%[46.1 µM]	nt	9.8%
c1ccc2c(N3CCNCC3)cccc2c1	-36.5%	4.5%	11.2µM*	-5.4%	nt	-9.3%	-6.4%	-24.3%&-13.4%
CN1CCN(NC(=O)/C=C/c2ccc(Br)cc2)CC1	20.4%	nt	nt	-9.7%	3.8%	nt	nt	13.6%
c1ccc2cc(OCCOCCOc3ccc4ccccc4c3)ccc2c1	0.9%	nt	3.8%	8.9%	-0.2%	-1.9%	nt	-9.6%
CC(=O)Nc1ccc(S(=O)(=O)N2CCN(CCCOc3cc(C)ccc3C)CC2)cc1	-18.1%	-5.9%	?	-5.4%	-2.8%	-23.4%	?	31.6µM*
CC(C)(C)c1ccc(C(=O)Nc2cccc3ncccc23)cc1	0.6%	nt	?	16.8%	-5.9%	?	nt	-12.8%
COc1ccccc1CNc1cc(C)nc2nc(-c3ccc(C)cc3)nn12	nt	-3.8%	nt	nt	nt	-22.1%[46.1 µM]	-12.3%	-0.1%
Cc1c(C(=O)N(C)C)sc2c1c(=O)n(-c1ccc(F)cc1)c(=O)n2Cc1cc(=O)n2ccccc2n1	nt	4.1%	nt	nt	nt	8.3%[46.1 µM]	3.1%	?
COc1cccc(C(=O)Nc2cccc(OCc3cc(=O)n4cc(C)ccc4n3)c2)c1	nt	3.6%	nt	nt	nt	0.3%[46.1 µM]	-1.9%	-0.7%
Cc1ccc([N+](=O)[O-])cc1N=C(c1cccc([N+](=O)[O-])c1)N1CCOCC1	-29.7%	-2.1%	-29.6%	18.7%	4.0%	-3.2%	-8.1%	0.0%
CC(C)NC(=O)C(=O)Nc1cc2c3c(c1)CCC(=O)N3CCC2	10.8%	nt	nt	6.4%	-3.5%	nt	nt	-12.3%
COC(=O)c1ccc(NC(=O)CCCCCn2nnc3ccccc3c2=O)cc1	-3.1%	nt	nt	8.1%	-3.3%	nt	nt	?
O=C(C1=C[C@@H](c2ccc(C(F)(F)F)cc2)C[C@@H](OCc2ccc(CO)cc2)O1)N1CCN(Cc2ccc3c(c2)OCO3)CC1	-3.3%	nt	nt	16.9%	-0.3%	nt	nt	?
O=C(Nc1nnc(CSCc2ccccc2F)s1)c1cccc([N+](=O)[O-])c1	17.6%	-7.4%	0.3%	4.6%	-12.4%	1.7%	?	-22.8%
CN(Cc1ccccc1)C(=O)COc1cc(Cl)ccc1Cl	-3.4%	nt	nt	-1.6%	-0.7%	nt	nt	26.3%
Cc1c(C(=O)OC/C(O)=C(\C#N)c2nc3ccccc3[nH]2)oc2ccc(Br)cc12	3.1%	nt	-4.7%[46.1 µM]	-15.9%	-0.5%	10.6%	nt	-22.5%

Random excerpt: 3 compounds from above, in no set order.
mol	NS1 function inh	Cruzain Triton	Marburg entry inh	RE007 growth inh	SARS PLpro yeast	LASV entry inh	Cruzain noTriton	StopGo reporter
c1ccc2cc(OCCOCCOc3ccc4ccccc4c3)ccc2c1	0.9%	nt	3.8%	8.9%	-0.2%	-1.9%	nt	-9.6%
Cc1c(C(=O)N(C)C)sc2c1c(=O)n(-c1ccc(F)cc1)c(=O)n2Cc1cc(=O)n2ccccc2n1	nt	4.1%	nt	nt	nt	8.3%[46.1 µM]	3.1%	?
CSCc1ccc(C(=O)N2CCC(N3CCC(C(=O)NC(C)C)CC3)CC2)o1	-14.9%	nt	-17.3%	16.9%	-5.5%	3.6%	nt	-18.2%

(next part)
mol	NS1 function inh	Cruzain Triton	Marburg entry inh	RE007 growth inh	SARS PLpro yeast	LASV entry inh	Cruzain noTriton	StopGo reporter
Cc1ccc2c(c1)C(=C(C#N)C#N)C(=O)N2CCN1CCCCC1	8.0%	nt	?	-23.0%	0.8%	5.9%	nt	-24.5%
CCOC(=O)c1c(N)n(-c2ccc(C)c(Cl)c2)c2nc3ccccc3nc12	nt	-1.9%	nt	nt	nt	7.8%[46.1 µM]	-9.5%	-14.4%
CCOC(=O)c1cccc(NC(=O)c2ccc3nc(CCc4ccccc4)oc3c2)c1	nt	-3.3%	nt	nt	nt	16.0%[46.1 µM]	-10.4%	-10.8%
Cc1cc(NC(=O)c2c(F)c(F)c(F)c(F)c2F)no1	-2.5%	-3.3%	?	1.6%	-5.1%	-1.0%	-0.3%	-27.5%
Cc1cc(C)nc(N2CCCC(C(=O)NNC(=O)c3ccncc3)C2)n1 (stereo not drawn)	-3.9%	nt	0.2%	6.3%	2.0%	1.7%	nt	-1.3%
CCCCNC(=O)COC(=O)c1cc(C)nc2ccccc12	-8.0%	-2.1%	10.6%	-6.6%	-1.1%	28.6%	8.5%	-17.0%
Cc1cn(C2CCCCO2)c(=O)nc1NO (stereo not drawn)	nt	nt	?	8.4%	nt	20.0%	nt	-16.9%
O=C(O)/C=C/C(=O)c1ccc(O)cc1	5.5%	nt	9.2%[46.1 µM]	9.7%	1.2%	0.7%	nt	-14.2%
Cc1cc(=O)[nH]c(-c2ccc(Cl)cc2)n1	1.7%	nt	-1.6%[46.1 µM]	-2.6%	0.5%	2.8%	nt	14.1%
COc1ccc(OCC(=O)N2CCCC(N3CCN(c4ccccc4C)CC3)C2)cc1 (stereo not drawn)	-21.8%	nt	?	-4.0%	1.7%	?	nt	?
O=Nc1c(O)[nH]c2c(F)cccc12	11.8%	-2.4%	-4.2%	-16.4%	18.4%	1.7%	-14.6%	-9.4%
NC(=O)c1cc(-c2ccccc2)sc1NC(=O)Cc1ccc(S(=O)(=O)N2CCOCC2)s1	8.7%	-9.7%	-0.6%&-0.6%	0.8%	-2.4%	-7.7%	-23.9%	1.8%
CN1CCCC(CN2c3ccccc3Sc3ccccc32)C1 (stereo not drawn)	5.7%	nt	nt	0.2%[18.4 µM]	-7.8%	nt	nt	0.0%
Cn1c(SCc2nc(-c3ccccc3)no2)nnc1-c1cccs1	-2.0%	-7.4%	-9.9%	-2.1%	-6.3%	?	-14.2%	6.0%
CCC(C(=O)NC1CCCCC1)n1c2ccccc2c2nc(=O)cc(C)n21 (stereo not drawn)	8.6%	nt	-18.7%[46.1 µM]	0.8%	-1.7%	?	nt	-8.1%
NC(=O)C1CCN(CC(=O)Nc2cccnc2Cl)CC1	nt	nt	8.0%	-7.0%	-0.2%	-3.0%	nt	-11.6%
CCN(CC)C(=O)C(=O)c1cn(CCOc2ccccc2)c2ccccc12	-12.6%	nt	?	-11.9%	0.9%	-8.8%[46.1 µM]	nt	-3.6%
O=C1CC(c2nc(-c3ccccc3)no2)CN1c1ccc2c(c1)OCCO2 (stereo not drawn)	nt	-6.8%	nt	nt	nt	23.8%[46.1 µM]	-10.8%	-10.3%
Cc1cc(=O)oc2cc(OCC(=O)Nc3ccc(CN4CCOCC4)cc3)ccc12	0.8%	nt	nt	4.4%	?	nt	nt	-19.6%
CCCCCc1c(C)nc(Nc2ccc(F)cc2)[nH]c1=O	-28.5%	-10.6%	?	18.6%	-5.0%	-6.9%	-2.4%	?
COC(=O)c1scc(-c2ccc(C)cc2)c1S(=O)(=O)N1CCN(c2cccc(OC)c2)CC1	nt	-3.7%	nt	nt	nt	?	?	0.0%
O=C(N/C=N/O)C(c1ccccc1)c1ncc(C(F)(F)F)cc1Cl (stereo not drawn)	1.2%	nt	-23.7%[46.1 µM]	-1.5%	-1.1%	-17.3%[46.1 µM]	nt	0.8%
Nc1nonc1-n1nnc(C(=O)N/N=C/c2c(F)cccc2Cl)c1-c1ccc2c(c1)OCO2	13.6%	nt	nt	-12.5%	1.1%	nt	nt	8.0%
COc1cccc(NC(=S)N(CCN(C)C)C(C)c2ccco2)c1 (stereo not drawn)	7.7%	1.5%	?	12.2%	5.4%	9.8%	0.5%	21.7%
O=C(c1ccc([N+](=O)[O-])cc1)N1CCN(C(=O)c2cccs2)CC1	-6.0%	0.1%	-9.9%	9.0%	2.0%	-2.1%	-6.9%	-26.4%
CN(C)c1ccc(CNC(=O)C2CCN(S(=O)(=O)c3ccc4c(c3)CCC(=O)N4)CC2)cc1	-38.7%	2.9%	3.0%	-8.1%	-2.4%	nt	4.8%	0.0%
CCOc1ccc(CNC(=O)c2cc(=O)[nH]c3ccc(S(=O)(=O)N4CCCCC4)cc23)cc1	nt	0.4%	nt	nt	nt	6.2%[46.1 µM]	5.3%	-4.2%
COc1ccc(OC)c(-n2c3c(cc(-c4nc(-c5ccc(Cl)cc5)cs4)c2=O)C(=O)CC(C)(C)C3)c1	nt	-1.4%	1.4%[46.1 µM]	nt	nt	4.4%[46.1 µM]	14.1%	-3.4%
COc1cc(Cl)c(C)cc1NC(=O)c1nn(C)c2c1CSc1ccccc1-2	nt	-4.5%	0.8%[46.1 µM]	nt	nt	-13.3%[46.1 µM]	-11.8%	-8.1%
O=C(N/N=C/c1ccco1)C1COc2ccccc2O1 (stereo not drawn)	-6.1%	-3.5%	?	nt	-32.9%	17.8%	9.9%	5.0%
